TDP1 block: inhibitors of human tyrosyl-DNA phosphodiesterase TDP1; Q9NUW8; recombinant TDP1, AlphaScreen DNA substrate cleavage; Potency, µM (series often up to 130 µM), for the others: at the highest dose activity change, negative = inhibition, usual class: inhibitors; actives 0.28% (n = 350,000); AID 485290; note: nearly all actives have a fitted effect of over 40% in size
Target sequence (Q9NUW8 whole entry, looked up): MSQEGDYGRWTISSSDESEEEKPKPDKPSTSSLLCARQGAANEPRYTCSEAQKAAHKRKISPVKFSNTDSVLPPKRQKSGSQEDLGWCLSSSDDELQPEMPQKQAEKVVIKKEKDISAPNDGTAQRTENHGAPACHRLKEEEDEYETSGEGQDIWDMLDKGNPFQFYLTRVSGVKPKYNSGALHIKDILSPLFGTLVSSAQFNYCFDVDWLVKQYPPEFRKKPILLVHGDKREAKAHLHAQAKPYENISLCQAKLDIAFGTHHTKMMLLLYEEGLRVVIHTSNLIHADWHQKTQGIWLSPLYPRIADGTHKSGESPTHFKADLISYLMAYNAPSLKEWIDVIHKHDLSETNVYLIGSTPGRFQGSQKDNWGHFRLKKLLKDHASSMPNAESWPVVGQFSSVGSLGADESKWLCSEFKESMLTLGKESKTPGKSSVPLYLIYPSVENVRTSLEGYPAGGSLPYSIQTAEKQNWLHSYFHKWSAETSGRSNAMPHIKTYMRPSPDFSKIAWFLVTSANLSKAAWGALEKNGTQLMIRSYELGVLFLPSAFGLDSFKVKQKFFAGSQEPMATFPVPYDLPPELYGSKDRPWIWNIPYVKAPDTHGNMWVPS
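Compounds were preincubated with Tdp1 (1 nM final) for 15 min at room temperature before substrate (15 nM final) started a 5 min reaction; beads (10 ug/ml final) were then added for 10 min before AlphaScreen detection.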
DT40 TDP1 no CPT: qHTS for Inhibitors of human tyrosyl-DNA phosphodiesterase 1 (TDP1): qHTS in cells in absence of CPT | DT40 Tdp1-/- hTDP1 cells, no CPT, ATP luminescence, 48 h | Potency, µM (highest dose often 46.2 µM), for the others: at the highest dose activity change, negative = growth inhibition, hits mostly inhibitors | actives 15% (n = 420,000); note: nearly all actives have a fitted effect of over 55% in size
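Cells were dispensed at 400 per well, compounds added by pin tool, plates incubated ≥48 hr at 37 °C, then CellTiter-Glo added for 30 min at room temperature before luminescence reading. Line: DT40 Tdp1-/- complemented with hTDP1; camptothecin omitted.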
* marks the source's active call; other numbers are inactive results; ? = inconclusive; / = not tested or not shown; & = joins results of further samples; [ ] = another dose, or the depositor's remark. Calls come from the whole dose curve; as a rule, active = well fitted curve in the direction sought with a large enough effect; inconclusive = small, poorly fitted or top-dose-only effect, or another doubt; inactive = no such curve, though single readings can be large; an effect the other way counts as inactive or inconclusive. % is set by controls: 0 for no effect and ±100 for the full control effect; potency is the fitted concentration of half-maximal effect. The list is partial, and most or all hits are left out here.

SMILES	TDP1 block	DT40 TDP1 no CPT
CCCC(=O)NC(=S)Nc1ccccc1OC	0%	-7%
COc1ccc2c(c1OC)C(=O)N(C(C)C(=O)O)C2=O (stereo unspecified)	-6%	0%
COC(=O)COc1ccc(S(=O)(=O)Nc2ccc(C(N)=O)cc2)cc1C	2%	-13%
Cc1ccc(NC(=O)CN2C(=O)N/C(=C/c3ccc(N4CCOCC4)cc3)C2=O)cc1	-4%	12%
N#C/C(=C\c1ccc(-c2cccc([N+](=O)[O-])c2)o1)C(=O)NCCN1CCOCC1	8%	?
CC(C(=O)O)c1ccc(CC2CCCC2=O)cc1 (stereo unspecified)	-11%[56.1 µM]	11%&0%
Cn1c(=O)c2c(nc(NC3CCCCC3)n2CC(=O)C23CC4CC(CC(C4)C2)C3)n(C)c1=O	2%	?
CC(C)[C@H](NS(=O)(=O)c1ccccc1)C(=O)OCC(=O)Nc1ccc2c(c1)OCO2	3%	-30%
CC(C)c1ccccc1NC(=S)NCc1ccncc1	2%	-3%
Cc1cc(=O)oc(C)c1C(=O)NCCc1ccccc1	5%	-3%
CCc1cc2c(SCC(=O)Nc3ccc(Cl)cn3)ncnc2s1	3%	-22%
COc1ccc(C(=O)N2CCSC2=S)cc1OC	6%	-12%
Cn1c(Sc2ccc([N+](=O)[O-])cc2C(F)(F)F)nnc1-c1ccccc1	4%	?
Cc1cccn2c(=O)c(/C=C(\C#N)S(=O)(=O)c3ccccc3)c(N3CCC(C(N)=O)CC3)nc12	9%	-20%
COCc1c(C(=O)N/N=C/C2CC=CCC2)nnn1-c1nonc1N (stereo unspecified)	2%	-17%
O=C1N(c2ccc3c(c2)OCCO3)C(c2ccccc2)C1(F)F (stereo unspecified)	-1%	6%
CC(C)(O)C#Cc1ccccc1C(=O)NC(CC(N)=O)C(=O)O (stereo unspecified)	-4%	-3%
Cc1ccc(S(=O)(=O)N(CC(=O)NCc2ccncc2)Cc2ccc(F)cc2)cc1	8%	?
COc1cccc(-c2ccc(C#N)c(SCC(=O)NCCc3ccccc3)n2)c1	5%	-7%
O=C1NCCCN1Cc1ccc(F)cc1Cl	9%	-3%
COc1ccc(N2C(=O)CCC(C(=O)N(C)CCc3ccccn3)C2c2ccc(OC)c(OC)c2)cc1 (stereo unspecified)	5%	3%
O=C(Nc1ccc(Cc2ccncc2)cc1)c1ccco1	3%	-23%
CCOC(=O)c1ccc(NC(=O)CSc2nnc(COc3ccccc3OC)n2C)cc1	4%	-3%
CCc1cc(=O)[nH]c(SC/C=C/c2ccccc2)n1	3%	4%
CCC(C)NC(=O)Cn1cc2c(n1)CCC(C)C2 (stereo unspecified)	4%	11%

Part of the list above in order of molar mass, falling:
SMILES	TDP1 block	DT40 TDP1 no CPT
Cc1ccc(S(=O)(=O)N(CC(=O)NCc2ccncc2)Cc2ccc(F)cc2)cc1	8%	?
COc1cccc(-c2ccc(C#N)c(SCC(=O)NCCc3ccccc3)n2)c1	5%	-7%
COc1ccc(C(=O)N2CCSC2=S)cc1OC	6%	-12%
CCCC(=O)NC(=S)Nc1ccccc1OC	0%	-7%

Quoted at random: 7 compounds from above
SMILES	TDP1 block	DT40 TDP1 no CPT
CCC(C)NC(=O)Cn1cc2c(n1)CCC(C)C2 (stereo unspecified)	4%	11%
CCc1cc2c(SCC(=O)Nc3ccc(Cl)cn3)ncnc2s1	3%	-22%
O=C1N(c2ccc3c(c2)OCCO3)C(c2ccccc2)C1(F)F (stereo unspecified)	-1%	6%
COc1ccc2c(c1OC)C(=O)N(C(C)C(=O)O)C2=O (stereo unspecified)	-6%	0%
Cn1c(=O)c2c(nc(NC3CCCCC3)n2CC(=O)C23CC4CC(CC(C4)C2)C3)n(C)c1=O	2%	?
CCCC(=O)NC(=S)Nc1ccccc1OC	0%	-7%
COC(=O)COc1ccc(S(=O)(=O)Nc2ccc(C(N)=O)cc2)cc1C	2%	-13%

Following part.
SMILES	TDP1 block	DT40 TDP1 no CPT
CC1CN(C(=O)CCC(=O)NC(C)c2ccccc2)c2cc(Cl)ccc2O1 (stereo unspecified)	/	-50%
CC(=O)c1cccc(NC(=O)CCNS(=O)(=O)c2cccc(C(C)=O)c2)c1	7%	-19%
CCOC(=O)/C=C1\SCC(=O)N1CC(=O)NCCOC	-1%	-3%
COC(=O)C(O)(NC(=O)OCc1ccccc1)C(F)(F)F (stereo unspecified)	-3%	3%
O=C(O)c1cccc(Oc2ccccc2[N+](=O)[O-])c1	0%	16%
O=C1NCCc2cc3c(cc21)OCO3	0%	3%
O=C(COc1ccc2c3c(c(=O)oc2c1)CCCC3)NC(Cc1ccc(Cl)cc1)C(=O)O (stereo unspecified)	/	-4%
CC1(C)NC(=O)N(CCOc2ccc3c(c2)CCC3)C1=O	4%	-7%
COc1ccc(N(CC(=O)Nc2cccc(C(F)(F)F)c2)S(C)(=O)=O)cc1	3%	-20%
CCNC(=O)c1cc(Br)ccc1Cl	-1%	7%
Cc1ccc(NC(=O)COC(=O)c2cccnc2Cl)cc1S(=O)(=O)N1CCCCC1	0%	-16%
COc1cc2[nH]c(=O)c(C(=O)NCCCN3CCOCC3)c(O)c2cc1OC	3%	-22%
Fc1ccc(-c2nc3ccccc3[nH]2)cc1	-5%	-8%
CCNC(=O)CN(Cc1ccccc1)S(=O)(=O)c1ccccc1	5%	-16%
NC(=S)c1ncc(C(F)(F)F)cc1Cl	1%	7%
COC(=O)c1cn(C(=O)c2ccc(Cl)cc2)c2ccccc12	3%	-13%
CCOc1ccc(CNC(=O)C2CC(=O)N(C3CCCC3)C2)cc1OC (stereo unspecified)	-3%	?
Cc1ccc(NC(=O)COC(=O)CCC(=O)c2cccs2)c(C)c1	3%	3%
N#C/C(=C(/O)c1ccc(C(=O)c2ccccc2)cc1)c1nc2ccccc2[nH]1	5%	-22%
CCSc1nc2ccccc2n1CC(=O)N1CCCCC1	-2%	-7%
CCCc1nc(N2CCCC2)c(C#N)c2c1CCCC2	-3%	-6%
Cc1ccc(NC(=O)CSc2nc(C)c(C)c(C)n2)c([N+](=O)[O-])c1	4%	-16%
COc1cc(C(=O)NC2CCN(Cc3nnnn3Cc3cccs3)CC2)cc(OC)c1OC	-4%	-27%
COc1ccc(N(C(=O)c2ccn[nH]2)C(C(=O)NC(C)(C)C)c2ccc(F)cc2)cc1 (stereo unspecified)	4%	-17%
O=C(CCNC(=O)c1ccc([N+](=O)[O-])cc1)Nc1ccccc1N1CCOCC1	-2%	7%

Whole records, quoted from the list. Order of values: TDP1 block	DT40 TDP1 no CPT
O=C1NCCc2cc3c(cc21)OCO3 in the list: 0%	3%
N#C/C(=C(/O)c1ccc(C(=O)c2ccccc2)cc1)c1nc2ccccc2[nH]1 in the list: 5%	-22%

(cont.)
SMILES	TDP1 block	DT40 TDP1 no CPT
Cc1csc(/C(C#N)=N/O)n1	3%	6%
Cn1cc(CNCCN2CCCCC2=O)c(-c2cccc(Cl)c2)n1	6%	-9%
CN1c2ccccc2C(=O)/C(=C\Nc2ncccn2)S1(=O)=O	-1%	-2%
CCOC(=O)C1CCCN(CCCc2ccccc2)C1 (stereo unspecified)	0%&2%	-21%&1%
CCC(C)(C)NC(=O)C(c1ccc(C)cc1)N(Cc1cccnc1)C(=O)c1csnn1 (stereo unspecified)	0%	-14%
CC1CCN(C(=O)CSc2nnc(Cn3c(=O)sc4ccccc43)n2C)CC1	5%	-7%
COc1cccc(NC(=O)C(Cc2ccccc2)NC(=O)C2CCC(C)CC2)c1 (stereo unspecified)	0%	?
Cc1cc(C)nc(N(C#N)Cc2ccc(Cl)cc2)n1	-1%	4%
CC(=O)C1=C(O)C(=O)N(CCCCCC(=O)O)C1c1ccc(N(C)C)cc1 (stereo unspecified)	-2%	-17%
Cc1ccc(NC(=O)c2cccc(N3C(=O)C4C5CCC(C5)C4C3=O)c2)c(C)c1 (stereo unspecified)	-4%	?
O=C(NCCN1CCOCC1)c1cc2sccc2n1Cc1ccc(F)cc1	4%	?
Cc1ccccc1OCC(=O)Nc1ccc2c(c1)OCO2	2%	?
COC(=O)c1c(NC(=O)CSc2nncs2)sc2c1CCCCC2	5%	?
O=C(COc1ccccc1Cl)NCCNC(=O)c1ccccn1	6%[0.0935 µM]	-14%
CCOC(=O)C(C)Sc1nnc(Cc2cc(=O)[nH]c(=O)[nH]2)n1-c1cccc(OC)c1 (stereo unspecified)	2%	2%
Cc1ccc(-c2nnn(CC(=O)N(c3cnc4ccccc4c3)C(C(=O)NC3CCCC3)c3ccncc3)n2)o1 (stereo unspecified)	8%	?
COCCCNC(=O)c1cc(C(=O)c2ccccc2Br)c[nH]1	6%	-28%
CC(=O)Nc1ccc(S(=O)(=O)N2CCN=C2c2ccccc2)cc1	3%	8%
Cc1cc(Nc2ccc(Br)cc2)n2nc(C)nc2n1	5%	-16%
O=c1ccc(Br)c[nH]1	7%	-5%
CNC(=O)c1cc2c(=O)n3cc(C)ccc3nc2n(C(C)C)c1=N	2%	?
CN(C)c1ccc(Cl)cc1N	6%	3%
CN(CC(=O)O)S(=O)(=O)c1ccc2c(c1)NC(=O)CC(=O)N2	3%	13%
Cc1occc1C(=O)NC(C)CCc1ccccc1 (stereo unspecified)	0%	?
COc1ccc(OCCC(=O)OCC(=O)NCc2ccc(F)cc2)cc1	2%	-3%

Taken from above.
`Cc1ccc(S(=O)(=O)N(CC(=O)NCc2ccncc2)Cc2ccc(F)cc2)cc1` | TDP1 block: 8%
`CC1CN(C(=O)CCC(=O)NC(C)c2ccccc2)c2cc(Cl)ccc2O1` (stereo unspecified) | DT40 TDP1 no CPT: -50%

Carrying on:
SMILES	TDP1 block	DT40 TDP1 no CPT
O=C(COc1ccccc1[N+](=O)[O-])N/N=C/c1cccc(OC(=O)c2ccc3c(c2)OCO3)c1	1%	?
CCOC(=O)N1CCN(C(=O)c2c[nH]c3ccc(S(=O)(=O)N(C)c4ccc(F)cc4)cc3c2=O)CC1	1%	27%
CSCC[C@@H](CO)NC(=O)c1ccc2nc(C3CCCCC3)oc2c1	/	6%
Cc1onc(NC(=O)NC(=O)c2c(F)cccc2Cl)c1Br	0%	2%
Cc1cccc(C(=O)Nc2ccc3c(c2)C(=O)NC3=O)c1	/	2%
CC(=O)Nc1cccc(C(=O)OC(C)C(=O)NC2CCCc3ccccc32)c1 (stereo unspecified)	0%	-8%
COc1ccc(CC(=O)n2nc(-c3cccnc3)nc2N)cc1	2%	2%
CCc1cc(C(=O)Nc2ccc(S(=O)(=O)NC3=NCCCCC3)cc2)sc1C	1%	?
O=C(NCCN1CCOCC1)c1cc2ccccc2[nH]1	4%[56.1 µM]	?
CCC(C)NC(=O)C(=O)NC1CCCC1 (stereo unspecified)	3%	12%
Cn1c(CCC(=O)OCC(=O)Nc2ccc(Oc3ccccc3)cc2)nc(=O)c2ccccc21	3%	0%
CSCCC(NS(=O)(=O)c1ccccc1F)C(=O)NNC(=O)c1csc(N2CCOCC2)n1 (stereo unspecified)	1%	-12%
Cc1ccc2c3c1C(=O)C(=O)N3C(C)(C)CC2C (stereo unspecified)	9%	?
COc1ccc(-n2c(=O)c3ccccc3n(CC(=O)NC3CCCCC3)c2=O)cc1OC	2%	?
O=C(c1ccco1)N1CCC(c2nc3c(nnn3Cc3ccc(F)cc3)c(=O)[nH]2)CC1	2%	6%
Oc1ccc(C2N=C(c3ccccc3)NC(c3ccccc3)=N2)cc1	2%	-19%
CCC(C)n1c(S(=O)(=O)O)nc2ccccc21 (stereo unspecified)	5%	-10%
COCCn1c(C(=O)N2CCCC2)cc2c1C[C@H]1CN(C(=O)c3ccccc3)[C@@](Cc3ccccc3)(C(=O)OC)[C@@H]21	7%	/
CCc1nn(CC(=O)NCCc2ccc(OC)cc2OC)c(=O)c2cc3occc3n12	0%&0%	12%&-4%
CC(=O)Nc1ccc(S(=O)(=O)Nc2nc3ccccc3nc2Nc2ccccc2)cc1	0%	15%
COC(=O)CC1C(=O)NCCN1C(=O)CSc1nnc(Nc2ccc(OC)cc2)s1 (stereo unspecified)	-1%	-25%
Cc1cc(C)n(/N=C/c2c[nH]c3ccccc23)c(=O)c1	-2%	-26%
COc1ccc(NS(=O)(=O)c2ccc(C)c(C(=O)N3CCCCCCC3)c2)cc1	1%[0.505 µM]	?
Cc1cc(S(=O)(=O)Nc2cccnc2)c(Cl)cc1Cl	/	-15%
CCC(=O)N1CCCc2cc(S(=O)(=O)N3CCN(C4CCCCC4)CC3)ccc21	2%	?
(cont.)
SMILES	TDP1 block	DT40 TDP1 no CPT
NS(=O)(=O)c1ccc(CCNc2nc(CN3CCCCC3)nc3sc4c(c23)CCC4)cc1	5%	-8%
O=S(N1CCCCC1)C12CC3CC(CC(C3)C1)C2 (stereo unspecified)	10%	-1%
COc1ccc(-n2c(Cc3cccn3C)nnc2SCC(=O)NCC2CCCO2)cc1 (stereo unspecified)	11%	1%
Cc1ccn(CC(=O)N2N=C(C(F)F)CC2(O)C(F)F)n1 (stereo unspecified)	5%	-1%
O=C1OC2CCC1(c1ccccc1)C2 (stereo unspecified)	-2%	5%
Cc1ccc[n+](CC(=O)N2CCCc3ccccc32)c1	0%	7%
O=C(CSc1nncs1)Nc1cc(S(=O)(=O)N2CCOCC2)ccc1N1CCCC1	1%	-15%
Cc1cccc(C(=O)NCC(c2cccs2)N2CCOCC2)c1 (stereo unspecified)	-1%	-17%
COc1ccc(CNC(=O)CSc2n[nH]c(N)n2)cc1OC	1%	-13%
Cc1ccc(NC(=O)COc2ccc(/C=N\NC(=O)c3cccnc3)cc2)cc1C	2%	-4%

Screening data: PubChem BioAssay, National Center for Advancing Translational Sciences (NCATS)
